Screening data (PubChem BioAssay)
Vaccinia Venus: qHTS for Stage-Specific Inhibitors of Vaccinia Orthopoxvirus: Venus Reporter Primary qHTS. Vaccinia virus Venus reporter expression, fluorescence. Potency, µM (top dose mostly 36.5 µM), for the others: at the top dose activity change, negative = inhibition, usual class: inhibitors. actives 0.46% (n = 330,000); active means well fitted inhibition curve with a large enough effect; inconclusive means small, poorly fitted or top-dose-only effect; inactive means no such curve, though single readings can be large or run the other way; tested in A549 cells; further: nearly all actives have a fitted effect of over 30% in size; inactives centre near -10
VACV mCherry inh: qHTS for Stage-Specific Inhibitors of Vaccinia Orthopoxvirus: mCherry Reporter Primary qHTS | Vaccinia virus mCherry reporter infection, fluorescence; about a quarter of the inactives have no number | actives 0.63% (n = 310,000) | Potency, µM (titrated, usually from 36.5 µM), for inactives: top-dose activity change, negative = inhibition, most hits filed as inhibitors; active = well fitted inhibition curve with a large enough effect; inconclusive = small, poorly fitted or top-dose-only effect; inactive = no such curve, though single readings can be large or run the other way; tested in A549 cells; further: nearly all actives have a fitted effect of over 35% in size; inactives centre near -10
Starred values were filed as active, the others as inactive; i = inactive; ? = inconclusive; / = no result given; & = joins results of further samples; [ ] = another dose, or the depositor's remark. On the % scale 0 is the no-effect control and ±100 the full control effect; potency means the concentration at half of the fitted maximal effect. Rows were taken by chance. About 0.82% of those tested had a hit in this group.

SMILES	Vaccinia Venus	VACV mCherry inh
O=C(COC(=O)c1n[nH]c2ccccc12)NC(=O)NC1CCCCC1	-23%	-11%
O=C1CSC(=S)N1c1cccc(O)c1	-2%	-4%
O=c1c2ccccc2nc2n1C(CSc1ccc(F)cc1)CS2 (configuration not stated)	-2%	i
CC(C)NC(=O)c1ccccc1NC(=O)Cc1ccc(Br)cc1	-26%	-19%
Cc1oc(-c2cc(F)cc(F)c2)nc1CN1CCN(C(=O)c2ccco2)CC1	-14%	-15%
c1ccc(-c2ccc3c(n2)CCCO3)cc1	-15%	i
Cc1ccc[n+](CC(=O)Nc2c(Cl)cc(Cl)cc2Cl)c1	-8%	i
O=C1CCC[C@@H]2C[C@@]3(C[C@@H]4CCN1[C@H]24)Nc1cc(Cl)ccc1NC3=NCc1ccccc1	-7%&-21%	?
Clc1ccccc1Nc1nc(-c2cccnc2)cs1	-10%	-22%
CC1(C)CC(C(CCN(Cc2ccccc2)C(=O)c2ccco2)c2ccc(F)cc2)CCO1 (configuration not stated)	?	?
Cc1ccc2cc(CCNS(=O)(=O)c3ccc(Cl)cc3)c(=O)[nH]c2c1C	-10%	-16%
COc1ccc(-c2nc(CN3CCC(C(=O)NCc4ccc(F)cc4)CC3)c(C)o2)cc1OC	-17%	-16%
COc1ccc(-c2oc3ccccc3c(=O)c2OC(C)=O)cc1	-20%	-10%
Cc1ccc(N(CC(=O)NC2CCCCC2)C(=O)Cn2nnc(-c3ccc(C)o3)n2)cc1	-3%	0%
CCCN1CCN(CC(=O)Nc2nc3ccccc3s2)CC1	7%	-11%
N#CCSc1nc2ccccc2c(=O)n1CC1CCCC1	-19%	-19%
Cc1ccc(S(=O)(=O)N2[C@@H](CO)CO[C@H]2CC(=O)c2ccc(F)cc2)cc1	-8%	-14%
O=C(NN=c1c(=O)c2ccccc2c1=O)c1ccccc1	-6%	i
CCNC(=S)N(Cc1cc2cc(C)c(C)cc2[nH]c1=O)C1CCCC1	-21%	i
CC(OC(=O)CCN=C1NS(=O)(=O)c2ccccc21)C(=O)c1ccccc1 (configuration not stated)	9%	-12%
CN(C)S(=O)(=O)c1ccc(Cl)c(NC(=O)CN2CCC(Cc3ccccc3)CC2)c1	-18%	-27%
COc1ccc(C)cc1NC(=O)C(=O)NCC1(c2ccccc2)CCCC1	-2%	-9%
Cc1ccccc1-c1nc(Cc2ccccc2)no1	-14%	/
COc1ccc(OCC(=O)Nc2nccs2)cc1	-5%	i
COc1cc(/C=N/N(C)C)ccc1OC(=O)c1ccco1	-9%	-4%

Individual results from the entries so far.
COc1cc(/C=N/N(C)C)ccc1OC(=O)c1ccco1 | VACV mCherry inh = -4%
Cc1ccc[n+](CC(=O)Nc2c(Cl)cc(Cl)cc2Cl)c1 | Vaccinia Venus = -8%

More records.
SMILES	Vaccinia Venus	VACV mCherry inh
CCOC(=O)c1cc2cc(CC(=O)c3ccc(OCC)cc3O)ccc2o1	-3%	-13%
CCc1ccc(NC(=O)CSC2=Nc3ccccc3C3=NC(CCC(=O)NCc4ccccc4)C(=O)N23)cc1 (configuration not stated)	-7%	-7%
COc1ccc(S(=O)(=O)N2CCOCC2)cc1NC(=O)COc1ccccc1OC	-8%	-12%
COc1ccc(-c2noc(-c3ccc(N4CCOCC4)c([N+](=O)[O-])c3)n2)cc1OC	9%	-3%
Cc1cc2c(c(=O)n1C1CC1)C(c1cccc(Cl)c1)C(C#N)=C(N)O2 (configuration not stated)	-18%	-22%
CCc1ccc(NC(=O)C(=O)c2cn(CC(=O)N3CCCCC3)c3ccccc23)cc1	-5%	-6%
CC(OC(=O)COc1ccc(Nc2ccccc2)cc1)C(=O)N(C)c1ccccc1 (configuration not stated)	-3%	-7%
Cc1nn(-c2ccccc2)c2c1N(CCCC(=O)NC(C)c1ccccc1)C(=O)CS2 (configuration not stated)	-13%	-2%
CCN(CC)S(=O)(=O)c1ccc2c(c1)N(CC(=O)N1CCN(c3cccc(C)c3C)CC1)C(=O)CO2	-10%	-19%
CC(=O)c1cnc2n(c1=O)CCS2	-11%	i
Cc1cc(=O)n2nc(N3CCCC3C(=O)Nc3cccc(Cl)c3C)sc2n1 (configuration not stated)	8%	12%
O=C(COc1ccccc1[N+](=O)[O-])c1ccccc1	7%	-2%
C#CCNC(=O)C1=C[C@H](c2ccc(C#C)cc2)C[C@H](OCc2ccc(CO)cc2)O1	-20%	i
CN1C(=O)/C(=C/c2ccc(OCc3ccc(F)cc3)cc2)NC1=S	-7%	i
O=C(CSc1nccn1-c1ccc(Cl)cc1)Nc1ccc2c(c1)OCO2	-16%	/
O/N=C1/C2C3C(Br)C4C5CC(C1C53)C24 (configuration not stated)	-7%	i
Cn1c(CNC(=O)c2ccc(Cl)cc2)nnc1SCC(=O)NC1=NCCS1	-4%	0%
COCC(=O)Nc1cc(C(=O)N2CC3(C)CC2CC(C)(C)C3)c2c(c1)nc(-c1ccncc1)n2C (configuration not stated)	-6%	-13%
O=C(CN1C(=O)NC2(CCCC2)C1=O)OCCOc1ccc(F)cc1	-7%	-28%
CC(=O)NS(=O)(=O)c1ccc(NC(=O)c2cc(-c3ccc(C)cc3)nc3ccccc23)cc1	2%	-5%
COC(=O)CSc1nnc(-c2cccnc2)n1-c1cc(OC)cc(OC)c1	-12%	-18%
COc1ccc(-c2cc(=O)oc3cc(OCC(=O)Nc4ccccn4)ccc23)cc1	0%[7.34 µM]	10%[7.34 µM]
Cc1ccc2nc(SCC(=O)NCc3cccs3)[nH]c2c1	8%	-10%
O=C(CCl)N1N=C(c2ccco2)CC1c1cccs1 (configuration not stated)	?	8.9µM*
Cc1ccc(NC(=O)c2sc(Cl)nc2C)c(C)c1	?	11µM*
SMILES	Vaccinia Venus	VACV mCherry inh
CC(=O)Nc1nonc1-c1nc2ccccc2n1Cc1ccccn1	-6%	0%
Cn1c(=O)c(=O)n(C)c2cc(N3CCCC3)c(NC(=O)c3ccccc3Cl)cc21	-4%	-12%
CCOC(=O)C1CCN(C(=O)CSc2nccc(C)n2)CC1	-10%	i
CCn1c(=O)c(=O)n(CC)c2cc(N3CCCCC3)c(NC(=O)c3ccccc3OC)cc21	1%	-7%
Cc1ccc(NC(=S)NNC(=O)c2ccc(N3CCOCC3)c([N+](=O)[O-])c2)cc1Cl	-8%	0%
CCOCCCNC(=O)CCC(=O)NNc1nc2ccccc2c2nc(-c3ccccc3)nn12	-10%&6%	-11%&-5%
CCOCCCNC(=O)c1cc2c(-c3ccc(Cl)cc3)nn(C)c2s1	-11%	i
CCOC(=O)C1=C(C)N=c2s/c(=C\c3ccc(OC(C)=O)cc3)c(=O)n2C1/C=C/c1ccccc1 (configuration not stated)	140%[activator]	0%
O=C(O)CCc1ccc(S(=O)(=O)Nc2cc(C(F)(F)F)ccc2N2CCCC2)cc1	1%	-12%
NC(=O)c1ccc(NC(=O)C2CC2)cc1	-11%	-4%
CC(Sc1ccc(Cl)cc1)C(=O)Nc1ccc2c(c1)OCO2 (configuration not stated)	1%	-3%
CCN1CCN(C(=S)NC(CC(=O)c2ccccc2)c2ccccc2)CC1 (configuration not stated)	-9%	i
CCNc1c(NS(=O)(=O)c2ccc(F)c(Cl)c2)c(=O)oc2ccccc12	-8%	-13%
COc1ccc(OCc2nc3ccccc3n2Cc2ccc(C(C)(C)C)cc2)cc1	-2%	-4%
N=Cc1c(O)n(-c2ccccc2)c(=O)n(-c2ccccc2)c1=O	-15%	i
Cc1ccc(N(CC(=O)NC(C)c2ccccc2)S(=O)(=O)c2c(C)n[nH]c2C)cc1 (configuration not stated)	-14%	i
COc1ccc(NS(=O)(=O)c2ccc(/C=C/C(=O)O)cc2)cc1S(=O)(=O)N1CCOCC1	-14%	i
CCOc1ccc(NS(=O)(=O)c2ccc(C(=O)NCCCN3CCOCC3)cc2)cc1	-18%	i
Cc1oc(-c2ccc(Cl)cc2)nc1CN1CCCC(C(=O)NCCc2ccc(Cl)cc2)C1 (configuration not stated)	-19%	-29%
CN(CC(=O)Nc1c(Cl)cccc1Cl)C(=O)CCNS(=O)(=O)c1ccccc1C(F)(F)F	-17%	?
COc1ccc(Cl)cc1NC(=O)CN1CCN(C(=O)N2CCOCC2)CC1	-6%	-9%
COc1ccc(OC)c(NC(=O)CSc2nc3scc(C)c3c(=O)[nH]2)c1	-6%	i
O=C(Nc1ccc(-n2cnnn2)cc1)C1CCCN1C(=O)Nc1ccc(Br)cc1 (configuration not stated)	-11%	-6%
CC(C)CN(CCCNC(=O)c1cc(=O)[nH]c2ccc(S(=O)(=O)N3CCCCCC3)cc12)CC(C)C	-6%	-8%
COc1ccc(Nc2nnc(-c3cc4c(ccc5ccccc54)oc3=O)s2)cc1	2%	-8%
SMILES	Vaccinia Venus	VACV mCherry inh
COc1cc(CN(C(=S)NCC(=O)N2CCCC2)C2CCCC2)cc(OC)c1OC	6%	-2%
O=C(NC(Cc1ccccc1)C(=O)O)/C(=C\c1ccc([N+](=O)[O-])cc1)NC(=O)c1ccco1 (configuration not stated)	-8%	-14%
O=[N+]([O-])c1ccccc1NC(=S)N/N=C/c1ccc(O)c(O)c1	-6%	?
Cc1cc(C)c(-c2c(O)c3cccc4c3n(c2=O)CCC4)c(C)c1	-11%	-12%
Cc1cc(=O)n2nc(-c3ccc(C(F)(F)F)cc3)sc2n1	0%	-8%
O=C(Cn1nnc(-c2ccc(F)cc2)n1)Nc1ccc2c(c1)OCCO2	-7%	6%
CCOC(=O)c1c(NC(=O)CSc2nnc(C)s2)sc2c1CCC(C)C2 (configuration not stated)	?	/
CCCC(C)NC(=O)c1ccc(OCc2ccc(Cl)cc2)c(OC)c1 (configuration not stated)	-28%	-28%
COc1nc2ccc(C)cc2cc1-c1noc(-c2ccccc2)n1	-19%	-13%
CN1CCC(NC(=S)NC2CC2)CC1	-5%	-12%
O=C(CCc1c[nH]c2ccccc12)N/N=C/c1ccc2c(c1)OCO2	-17%	-14%
S=c1[nH]nc(-c2ccc(Cl)cc2)n1/N=C/C=C/c1ccco1	-11%	i
CCOc1ccc(NC(=O)c2cc(-c3ccc(C)c(F)c3)on2)c([N+](=O)[O-])c1	7%	-11%
CC(=O)c1ccc(NC(=O)CSc2nc(N3CCOCC3)nc(N3CCOCC3)n2)cc1	-15%	-7%
CSc1nc2[nH]c3c(c2c2ncnn12)CCCC3	?	/
O=C(Cn1ncn2cccc2c1=O)N1CCCCC1	-12%	/
Cc1c(NC(=O)CN2CCN(C(=O)c3ccco3)CC2)c(=O)n(-c2ccccc2)n1C	-2%	-10%

Another view of part of the listing above.
> S=c1[nH]nc(-c2ccc(Cl)cc2)n1/N=C/C=C/c1ccco1
- Vaccinia Venus: -11%
- VACV mCherry inh: i

> COc1nc2ccc(C)cc2cc1-c1noc(-c2ccccc2)n1
- Vaccinia Venus: -19%
- VACV mCherry inh: -13%

> CN1CCC(NC(=S)NC2CC2)CC1
- Vaccinia Venus: -5%
- VACV mCherry inh: -12%

> O=C(Cn1ncn2cccc2c1=O)N1CCCCC1
- Vaccinia Venus: -12%
- VACV mCherry inh: /

Another view of some results above.
molecule | Vaccinia Venus | VACV mCherry inh
Cc1cc(=O)n2nc(-c3ccc(C(F)(F)F)cc3)sc2n1 | 0% | -8%
O=C(Cn1ncn2cccc2c1=O)N1CCCCC1 | -12% | /
COc1cc(CN(C(=S)NCC(=O)N2CCCC2)C2CCCC2)cc(OC)c1OC | 6% | -2%
CCOC(=O)c1c(NC(=O)CSc2nnc(C)s2)sc2c1CCC(C)C2 (configuration not stated) | ? | /
CCCC(C)NC(=O)c1ccc(OCc2ccc(Cl)cc2)c(OC)c1 (configuration not stated) | -28% | -28%
O=C(NC(Cc1ccccc1)C(=O)O)/C(=C\c1ccc([N+](=O)[O-])cc1)NC(=O)c1ccco1 (configuration not stated) | -8% | -14%
